# Screening results: PubChem, Center for Chemical Genomics, University of Michigan
# CDC25B-CDK2 inh = human CDC25B-CDK2/CyclinA binding inhibition; P30305+P24941; HTRF CDC25B-CDK2/CyclinA binding, anti-His/anti-Flag; hits give high values; z-score (test concentration not listed); actives 0.72% (n = 94,000); AID 1259370;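 also: score is relative to mean and SD of negative controls; strong numbers were not always called active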
# HIV TAR-Tat = HIV-1 TAR-Tat binding disruption | HIV-1 TAR RNA, Tat peptide displacement FRET; hits give high values | z-score (test concentration not listed) | actives 0.6% (n = 100,000);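 also: score is relative to mean and SD of negative controls; some compounds called inactive have numbers as strong as hits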
# * marks the source's active call; other numbers are inactive results; / = no result given.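 The calls were made as follows: active = z-score from 3 up in half or more of its runs; inactive = the rest.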
[1] CC(C)NC(=O)CSc1nc(-c2cccs2)cc(C(F)(F)F)n1
[2] CC(C)CC(O)(c1ccccc1)C(CN1CCOCC1)c1ccccc1 (configuration not stated)
[3] Cc1noc2ncnc(N(C)Cc3ccco3)c12
[4] O=C(NC1CCCCC1)c1ccc2c(=O)nc3c(-c4ccc(F)cc4)n[nH]n3c2c1
[5] O=C1CCC(C(=O)Nc2ccc(Cl)cc2)N1 (configuration not stated)
[6] CCSCCOC(=O)C1=C(C)NC(=O)NC1c1ccccc1 (configuration not stated)
[7] c1ccc(CNc2ncnc3c2nc2n3CCCCC2)nc1
[8] CCCc1cc(C2CCCN2C(=O)c2cnn3c(C(F)(F)F)cc(-c4ccco4)nc23)no1 (configuration not stated)
[9] COC(=O)C1=C(C)NC2=C(C(=O)CCC2)C1c1cc(Br)c(C)s1 (configuration not stated)
[10] CCOC(=O)c1cc(=O)c2ccc(OC(=O)c3sc4ccccc4c3Cl)cc2o1
Compound	1	2	3	4	5	6	7	8	9	10
CDC25B-CDK2 inh	-3.78	-1.38	/	/	-2.06	0.77	/	/	-0.31	-0.21
HIV TAR-Tat	-0.88	1.68	1.6	0.21	2.52	/	1.32	-2.24	1.54	/

[11] Cc1c(COC(=O)c2ccccc2)sc2ccccc12
[12] CCc1n(CC)c2ccccc2[n+]1CC(O)COc1ccc(F)cc1 (configuration not stated)
[13] CCS(=O)(=O)c1nc(S(=O)(=O)c2ccc(C)cc2)c(NCc2ccccc2)s1
[14] COC(=O)C(CCSC)NC(=O)Cn1ncc2c([nH]c3ccccc32)c1=O (configuration not stated)
[15] CCc1cc(C(=O)Nc2cc(Br)ccc2O)no1
[16] CC1Sc2ccc(S(=O)(=O)CCC(=O)N3CCCC3)cc2NC1=O (configuration not stated)
[17] O=C(c1ccco1)N1CCN(c2nc3ccccc3n3nnnc23)CC1
[18] Nc1nc2n(n1)C(c1cccs1)CC(c1ccc(F)cc1)N2 (configuration not stated)
[19] CN1C(C(=O)Nc2sc3c(c2C#N)CCC3)=CC(c2ccc(F)cc2)=NS1(=O)=O
[20] CCCc1nc2nc(C)cc(N3CCN(c4ccccn4)CC3)n2n1
Compound	11	12	13	14	15	16	17	18	19	20
CDC25B-CDK2 inh	-1.7	-0.81	-1.02	/	-1.21	/	-0.05	-0.25	-1.85	0.29
HIV TAR-Tat	/	1.51	-0.26	1.1	1.77	1.15	-5.04	/	3.56	0.32

[21] CCOc1ccccc1N1C(=O)C2C(c3ccc(F)cc3)OC3(C(=O)c4ccccc4C3=O)C2C1=O (configuration not stated)
[22] O=C(NCCCN1CCOCC1)C1CCCN(c2ncnc3c2sc2cccc(F)c23)C1 (configuration not stated)
[23] Cc1ccn2c(=O)c(C(=O)NCc3cccnc3)c(O)nc2c1
[24] COc1ccccc1-c1noc2ncnc(N(CCN(C)C)Cc3ccccc3)c12
[25] C=CCN(CC=C)Cc1c(O)ccc2c(=O)c(-c3ccccc3)coc12
[26] O=C(NCc1ccco1)c1ccc(CS(=O)c2cccc(Cl)c2)o1 (configuration not stated)
[27] CCOC(=O)c1c(NC(=O)c2ccncc2)sc2c1CCC(C(C)(C)C)C2 (configuration not stated)
[28] O=C1CCCC2=C1C(c1ccco1)N(Cc1ccccc1F)c1ccccc1N2 (configuration not stated)
[29] CCNC(=O)C1CCCN(c2nnc(N3CCCC3=O)s2)C1 (configuration not stated)
[30] N/C(CS(=O)(=O)c1ccccc1)=N\OS(=O)(=O)c1ccc(Cl)cc1
Compound	21	22	23	24	25	26	27	28	29	30
CDC25B-CDK2 inh	-1.24	-2.48	-1.17	/	0.73	/	-1.93	/	-2.83	-0.72
HIV TAR-Tat	0.63	-0.44	-0.52	1.13	-0.68	2.54	0.15	-7.39	0.35	/

[31] CCOc1ccc(-c2noc(CSc3nnc(-c4ccccc4)n3CC)n2)cc1
[32] COc1nc(-c2ccc(Cl)cc2)ccc1-c1noc(COc2ccccc2)n1
[33] Cc1ccc(-c2nc(NCc3cccnc3)c3ccccc3n2)cc1
[34] CC12C(=O)OC(=O)C1(C)C1CCC2O1 (configuration not stated)
[35] COc1cc2c(cc1OC)C1C(C(=O)N3CCN(c4ccccn4)CC3)c3ccccc3C(=O)N1CC2 (configuration not stated)
[36] Cc1nn(C)c(C)c1NC(=O)c1cnn2c(C(F)F)cc(-c3ccccc3)nc12
[37] Cn1nc(C(F)(F)F)cc1OC(=O)c1ccccc1Cl
[38] O=C(c1ccc(-c2cc(NC3CCCCC3)ncn2)cc1)N1CCC(N2CCCCC2)CC1
[39] O=C(CCc1nnc2ccc(NCc3ccc4c(c3)OCO4)nn12)Nc1ccc(F)cc1
[40] N#C/C(=C\NN1CCOCC1)S(=O)(=O)c1cc(C(F)(F)F)cc(C(F)(F)F)c1
Compound	31	32	33	34	35	36	37	38	39	40
CDC25B-CDK2 inh	-0.7	1.87	-0.74	-1.8	-1.33	0.05	-1.25	/	/	-1.34
HIV TAR-Tat	2.73	-5.44	-0.08	2.45	0.46	-0.6	/	1.35	2.48	/

[41] CCOC(=O)c1sc(=S)n(-c2ccccc2)c1NC(C)=O
[42] COc1cc2c3nnc(-c4ccccc4)c-3cn(Cc3ccccc3)c2cc1OC
[43] COc1ccc(N2C(=O)CC(Nc3ccc(Cl)cc3)C2=O)cc1 (configuration not stated)
[44] Cc1cccc(C)c1NS(=O)(=O)c1ccc(-c2ccc(=O)[nH]n2)o1
[45] CCCS(=O)(=O)c1nc(S(=O)(=O)c2ccc(Cl)cc2)c(N2CCCC2)s1
[46] Cc1ccc(N2C(=O)C3CC=CCC3C2=O)cc1Cl (configuration not stated)
[47] COc1ccc(CN2CN(C(C)C)CSC2=S)cc1
[48] COc1ccc(-c2cc(OC(=O)c3cccc(C)c3)c3c(C)oc(C)c3c(=O)c2)cc1OC
[49] CN1CCN(C(=O)C2=CC(c3ccc4c(c3)OCO4)=NS(=O)(=O)N2C)CC1
[50] Cn1c(=O)n(Cc2ccccc2)c(=O)c2c1nc1n2CCN1c1ccc(F)cc1
Compound	41	42	43	44	45	46	47	48	49	50
CDC25B-CDK2 inh	-1.74	-0.46	0.49	/	-0.41	-1.06	-0.79	-1.87	-0.93	/
HIV TAR-Tat	/	-0.2	0.62	1.94	2.17	0.93	/	1.32	1.16	1.6

# Next section:
entry	SMILES	CDC25B-CDK2 inh	HIV TAR-Tat
51	Cc1ccc(S(=O)(=O)NC(=O)NN2CCCCCC2)cc1	0.57	1.92
52	COc1ccc(Cl)cc1Nc1ncnc2c1nc1n2CCCCC1	/	-0.4
53	Clc1ccccc1Cc1noc(-c2cccs2)n1	/	-0.12
54	O=C1CCCC2=C1C(c1ccc(F)c(Br)c1)n1ncnc1N2 (configuration not stated)	-1.63	/
55	O=C(NCc1cccs1)C1CCCN(c2nnc(N3CCCCC3=O)s2)C1 (configuration not stated)	/	2.12
56	CCOc1ccc(-c2nc(SCC(=O)Nc3ccc4c(c3)OCO4)n3[nH]c(=O)cc3n2)cc1	/	-0.36
57	CCCCC1NC(=S)N(C2CCCCC2)C1=O (configuration not stated)	0.02	/
58	Cc1nc2ccccc2c2oc(C(=O)NC3CCCC3)cc12	0.3	1.02
59	CCOC(=O)c1c(NC(=O)C(C)Oc2ccc(OC)cc2)sc2c1CCCC2 (configuration not stated)	-0.42	0.5
60	O=C(CN1C(=O)C2CCCCN2C(=O)c2ccccc21)NC1CCCc2ccccc21 (configuration not stated)	/	-0.06
61	COc1ccc(NC(=O)CN2N=NC3C(=O)N(c4ccc(F)c(Cl)c4)C(=O)C32)cc1OC (configuration not stated)	/	0.41
62	CCOC(=O)c1c(NC(=O)c2nc(SCC)ncc2Cl)sc2c1CCC2	-0.73	1.79
63	CCOc1ccc(S(=O)(=O)c2c[nH]c3ccccc3c2=O)cc1	1.19	0.17
64	Cc1cc(C)c(S(=O)(=O)NCCCn2c(C(F)(F)F)nc3cccnc32)c(C)c1	/	0.63
65	CN1C(=O)C2(c3ccccc31)C(C(=O)Nc1c(F)cc(F)cc1Br)CC1CCCN12 (configuration not stated)	/	0.11
66	COc1ccc(-n2c(C)cc(CNC(=O)NC(C)C)c2C)cc1	/	-0.17
67	CNc1sc(S(C)(=O)=O)nc1S(=O)(=O)c1ccc(C)cc1	-0.4	0.9
68	Cc1oc2c(F)c(F)c(F)c(F)c2c1C(N)=O	-0.3	/
69	O=C(Nc1nc(-c2cccs2)cs1)c1ccc([N+](=O)[O-])s1	/	0.52
70	CN1CCCC12NCCc1c2[nH]c2ccccc12 (configuration not stated)	0.73	/
71	O=C(Cn1c(=O)n(CC(=O)NC2CCCC2)c(=O)c2ccccc21)Nc1ccccc1	-1.54	0.24
72	CCOC(=O)c1cc2ccccc2n1C	1.6	1.56
73	Cc1ccc(OCc2n[nH]c(=S)n2-c2ccccc2)cc1C	0.23	/
74	CC(O)CNC(=O)C(=O)Nc1c2c(nn1-c1ccc(F)cc1)CSC2 (configuration not stated)	/	1.98
75	COc1ccc(Cc2nnn(CC(=O)O)n2)cc1	-0.43	0.61
76	O=C(O)CNS(=O)(=O)c1ccc2[nH]c(=O)[nH]c2c1	6.64	0.79
77	Cc1c(C)c2cc3c(-c4ccc(Br)cc4)coc3cc2oc1=O	-2.4	/
78	Nc1ccc2nc(CCCCCCCc3nc4ccc(N)cc4[nH]3)[nH]c2c1	-0.43	/
79	Cc1ccc(S(=O)(=O)c2nc(S(C)(=O)=O)sc2N2CCN(CCO)CC2)cc1	-2	-1.84
80	COC(=O)c1ccc2c(c1)NC(=O)C1CCCN21 (configuration not stated)	/	-3.18
81	CCOC(=O)C1=C(C)NC2=C(C(=O)CC(C)(C)C2)C1c1cc(OC)cc(OC)c1 (configuration not stated)	0.17	1.01
82	O=C(NC1CCN(C(=O)c2cccs2)CC1)C1CCCCC1	-1.99	/
83	CN1CCN(c2sc(S(N)(=O)=O)cc2[N+](=O)[O-])CC1	-1.59	/
84	Cc1ccccc1-c1nc2c(c(=O)[nH]1)Cc1cc(Br)ccc1O2	0.11	-2
85	O=C1CCCC2=C1C(c1cccs1)N(C(=O)NCc1ccco1)c1ccccc1N2 (configuration not stated)	/	1.08
86	Cc1cc(C)n2nc(Cc3ccccc3)nc2n1	-0.8	1.17
87	C=CCNc1ncnc2c1c(-c1ccccc1)cn2-c1ccc(F)cc1	/	0.82
88	Cc1ccc(-c2cnnc(-n3nc(C)c4c3NC(=O)CC4c3ccc(Cl)cc3)n2)cc1 (configuration not stated)	-1.06	1.46
89	Cc1cc(C)c(NC(=S)N(C)C)c(C)c1	0.49	/
90	O=C(NC1CCCCC1)N1CCC2(CC1)Nc1cc(F)ccc1-n1cccc12	/	0.72
91	CO[C@H]1O[C@H](COC(=O)c2ccccc2)[C@@H](O)[C@H](O)[C@H]1OC(=O)c1ccccc1	-0.54	/
92	CC1=CC(C)(C)N(C(=O)CSc2nnc3sc4ccccc4n23)c2ccccc21	-1.07	/
93	COc1cccc(OCCCSc2nc(-c3ccccc3Cl)nc3cc(=O)[nH]n23)c1	/	-2.85
94	Cn1c(=O)c(N2CCC(C(=O)O)CC2)nc2ccccc21	2.27	1.06
95	CCn1cc(C(=O)Nc2nccs2)c(=O)c2ccc(C)nc21	-0.56	/
96	O=S(=O)(Nc1ccc(-c2ccc3ccccc3n2)cc1)c1ccc2c(c1)OCCO2	/	1.91
97	Cc1ccc(S(=O)(=O)[C@H]2CS(=O)(=O)C[C@@H]2N2CCc3ccccc3C2)cc1	-1.8	0.99
98	COc1ccc(Cl)cc1NC(=O)Nc1c(C)n(C)n(-c2ccccc2)c1=O	0.5	0.65
99	CCN1C(=O)c2cc(C(=O)NCc3cccs3)nn2CC1(C)C(=O)NC1CCCC1 (configuration not stated)	/	1.74
100	CN1C(=O)N(C)C2(c3ccccc3)N(C)C(=O)N(C)C12c1ccccc1 (configuration not stated)	0.58	/

# Remaining list, next part
entry	SMILES	CDC25B-CDK2 inh	HIV TAR-Tat
101	OCCn1c(-c2ccc(Cl)cc2)cn2c3ccccc3nc12	-1.59	2.12
102	CN(C)c1ccc2nc3c(=O)n(Cc4ccccc4)c(=O)[nH]c3nc2c1	-0.49	-6.5
103	CCCCCN1C(=O)C(=O)c2ccccc21	0.62	0.72
104	Cc1ccc(Nc2cc(C)nc3nc(-c4ccco4)nn23)cc1	/	0.48
105	Fc1ccccc1CN1CCN(Cc2ccc3ccccc3c2)CC1	0.95	/
106	CSc1cccc(NC(=O)Cc2ccc(NC3=NC4CS(=O)(=O)CC4S3)cc2)c1 (configuration not stated)	0.35	-0.05
107	S=c1[nH]c2cc3c(cc2[nH]1)OCCO3	-4.72	/
108	Cc1cc2c3c([nH]c2cc1S(=O)(=O)NC1CCCCC1)CC(C)(C)CC3=O	/	2.48
109	O=S(=O)(Nc1ccc(N2CCCS2(=O)=O)cc1)c1ccccc1Cl	/	1.15
110	Cc1nc(N2CCOCC2)c2c(C(=O)Nc3ccc(Cl)cc3)c(C)oc2n1	/	-2.8
111	O=C(CCc1nnc2ccc(NCc3ccco3)nn12)Nc1ccc(F)cc1	/	1.66
112	O=C(C[n+]1cccc(C(=O)Nc2ccccc2)c1)c1ccc(N2C(=O)c3ccccc3C2=O)cc1	-0.42	/
